Mtb hypoxia inh: inhibitors of hypoxia-regulated fluorescent reporter in Mycobacterium tuberculosis; AID 1159583; M. tuberculosis hypoxia-regulated fluorescent reporter, fluorescence; fluorescence inhibition, % (test concentration not listed); 0.1% of 300,000 active;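 active = 35 to 45% if threefold the growth effect, above 45% if 1.5-fold the growth effect; inactive = the rest, general growth blockers included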;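 also: wells of about 50 µL received 100 nL stock; 0% = vehicle wells and 100% = reference inhibitor wells; whole bacteria with a GFP reporter of the hypoxia response; strong numbers were not always called active; many hits fall short of the cut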
PrP UTR inh: inhibition of PrP 5' UTR reporter expression; cell-based PrP 5' UTR mRNA reporter, plate reader; inhibition, % (no concentration beside the values); 0.35% of 340,000 active; AID 488862;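 active = every replicate at 50% or more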;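 also: 0 = median of the neutral control wells; tested in H4 reporter cells; numbers are from one replicate; inactives centre near -14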
BJeLR viability: BJeLR cell viability loss. 0.17% of 300,000 active. inhibition, % (concentration not given with the values). BJeLR (HRASV12) viability, CellTiter-Glo ATP luminescence, 48 h; reference of the scale not given here. AID 1554;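 active = replicate mean above 50%; inconclusive = above 50% but judged a plate artefact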;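 also: 50 nL library stock added to about 25 µL; numbers are from one replicate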
Sa RN4220 lethal: kills Staphylococcus aureus RN4220. 0.33% of 330,000 active. inhibition, % (no concentration beside the values). AID 1259311. S. aureus RN4220 growth, OD600, 16 h;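 active = z-score of -3 or lower and OD600 up to 0.18 on both plates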;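 also: plate controls were untreated cells for no effect and reference antibiotic for full effect; stock transfer was 100 nL into about 80 µL; one replicate is shown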
Autofluor counter: flagged as autofluorescent in microsphere protease counterscreen. compound autofluorescence counterscreen, microsphere flow cytometry; hits give high values. fluorescence intensity (concentration not given with the values). 3.1% of 360,000 active;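 active = at least 3 SD above the mean of all compounds, about 16000 in these data; inconclusive = too few beads counted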;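 also: 100 nL of 1 mM stock went into each well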
ugtP null kill: kills S. aureus RN4220 lacking UgtP | S. aureus RN4220 ugtP deletion, OD600 growth, 16 h; some inactives read as strong as hits | growth inhibition, % (concentration not given with the values) | 0.54% of 330,000 active;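 active = z-score under -3 and OD600 up to 0.15 on both plates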;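 also: plate controls were untreated wells for no effect and antibiotic for full effect; wells of about 80 µL received 100 nL stock; the first replicate is given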
Mtb hypoxia inh growth: recorded beside Mtb hypoxia inh, whose call it bears; growth inhibition, %; measured here: M. tuberculosis growth (absorbance);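 0% = vehicle and 100% = reference antibiotic; read after six days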
The depositor's hits bear a star; ? = inconclusive; · = no result given. No enrichment for hits. Share with any hit: about 4.1%.

structure	Mtb hypoxia inh	Mtb hypoxia inh growth	PrP UTR inh	BJeLR viability	Sa RN4220 lethal	Autofluor counter	ugtP null kill
CC(=O)NC1(C(Cl)(Cl)Cl)Oc2ccccc2O1	-2.3	-2.7	-9.8	1.8	-2.9	9018	-4.8
CCOC(=O)C(NC(=O)Nc1ccc(Cl)cn1)(Oc1ccccc1)C(F)(F)F (configuration not stated)	16.6	10.6	-18.3	-10.0	54.0	2416	15.4
O=S(=O)(c1cccs1)N1CN(Cc2cccs2)c2nc3ccccc3nc21	-2.2	0.0	-16.3	0.5	1.8	?	5.1
CCOC(=O)C1CCN(C(=O)C2CCN(S(=O)(=O)N3CCCC3)CC2)CC1	3.1	-9.1	-7.9	-1.9	5.3	5750	13.1
CCN(CC)c1nc2nonc2nc1N(CC)CC	-3.3	0.6	-27.0	-3.2	0.4	9867	0.1
O=C(COc1ccc(S(=O)(=O)N2CCCC2)cc1)N1CCCC1	5.5	8.6	-16.3	0.4	2.9	3823	7.9
CCc1cccc(NC(=O)CC2Oc3ccccc3NC2=O)c1 (configuration not stated)	11.3	-2.8	-8.8	11.3	6.2	3952	7.6
N#CC(=Cc1ccc(O)c([N+](=O)[O-])c1)c1nc2ccccc2s1	·	·	·	·	96.2*	·	96.5*
NC(=O)CSc1nnc(COc2ccccc2)n1N	0.0	-8.8	-0.3	18.3	2.1	?	6.1
Cc1ccc(S(=O)(=O)Nc2ccc(Cl)cn2)cc1	4.7	-6.8	-7.2	1.3	10.2	4328	9.0
Nc1cccc(/C=C/c2ccncc2)c1	4.1	2.6	-28.4	-1.6	7.1	4954	5.1
CCCc1nnc(NC(=O)Cn2c(=O)oc3cc(Br)ccc32)s1	-9.6	-0.4	-4.3	·	-3.0	21386*	-4.5
CCC1(C)OC(=O)NN(c2ccc(C)cc2)C1(C)O (configuration not stated)	3.5	-0.4	-7.6	-15.7	1.9	2443	0.1
CCn1c2ccccc2c2nnc(SCC(=O)NCc3cccs3)nc21	5.4	3.0	-16.9	-9.5	7.9	3270	1.1
CC1=C/C(=N\NC(=O)c2cccs2)CC(C)(C)C1	·	·	-43.4	3.3	·	2825	·

At a glance, some entries already given:
structure	Mtb hypoxia inh	Mtb hypoxia inh growth	PrP UTR inh	BJeLR viability	Sa RN4220 lethal	Autofluor counter	ugtP null kill
O=C(COc1ccc(S(=O)(=O)N2CCCC2)cc1)N1CCCC1	5.5	8.6	-16.3	0.4	2.9	3823	7.9
CCc1cccc(NC(=O)CC2Oc3ccccc3NC2=O)c1 (configuration not stated)	11.3	-2.8	-8.8	11.3	6.2	3952	7.6
N#CC(=Cc1ccc(O)c([N+](=O)[O-])c1)c1nc2ccccc2s1	·	·	·	·	96.2*	·	96.5*
NC(=O)CSc1nnc(COc2ccccc2)n1N	0.0	-8.8	-0.3	18.3	2.1	?	6.1
Cc1ccc(S(=O)(=O)Nc2ccc(Cl)cn2)cc1	4.7	-6.8	-7.2	1.3	10.2	4328	9.0

(listing goes on)
structure	Mtb hypoxia inh	Mtb hypoxia inh growth	PrP UTR inh	BJeLR viability	Sa RN4220 lethal	Autofluor counter	ugtP null kill
Cn1c(=O)n(C)c2cc(N3CCOCC3)c(NC(=O)c3cccc(Cl)c3)cc21	10.7	-1.3	-2.1	-7.4	2.3	5386	1.4
CCOC(=O)c1cc2sccc2n1CC(=O)N1CCCc2ccccc21	5.3	1.8	8.5	-9.7	4.9	9127	2.7
CCn1c(CNC(=O)c2ccc(OC)cc2)nnc1SCC(=O)c1ccccc1	·	·	-17.5	-7.6	-4.5	2402	2.7
Cc1nc2c(-c3ccccc3)c(C)nn2c(C)c1CCC(=O)NCc1ccco1	2.2	5.2	15.4	·	5.3	5371	-0.9
Cc1nonc1NC(=O)CSc1cn[nH]n1	14.8	7.1	-20.7	4.2	-0.4	2899	-2.5
COC(=O)c1ccc(NN=Nc2ccc(C)cc2)cc1	6.6	-2.1	-12.4	-5.3	-1.6	7553	-2.6
CCN(CC)c1ccc(S(=O)(=O)N2CCOCC2)cc1NC(=O)CN1C(=O)NC2(CCC(C)CC2)C1=O (configuration not stated)	-5.7	6.9	-11.9	2.7	3.2	5618	0.3
CCCOc1ccc(C(=O)NNC(=S)NC(=O)c2ccco2)cc1	-6.1	8.3	-26.1	12.0	86.8*	4104	89.5*
COc1ccc(NS(=O)(=O)c2ccc(Br)cc2)cn1	7.5	6.6	-2.1	0.7	6.2	4852	6.4
COc1ccc(C2SCC(=O)Nc3c2c(=O)[nH]n3C2CCCCCC2)cc1OC (configuration not stated)	-8.0	-13.0	-14.5	-3.0	-0.8	18575*	1.1
Cc1cc(C(=O)COC(=O)c2ccc3c(c2)NC(=O)CS3)c(C)n1CC1CCCO1 (configuration not stated)	-9.3	6.5	-25.8	10.9	1.8	2476	-2.6
COc1ccc(CCNC(=O)CSc2nc3[nH]ncc3c(=O)n2-c2ccc(Cl)cc2Cl)cc1OC	7.8	8.1	-5.4	3.7	4.7	4358	3.0
O=S(=O)(Nc1ccc2c(c1)OCO2)c1ccc(F)c(F)c1	0.8	2.0	-5.1	·	2.8	3771	-1.9
CCN1CCN(CCC(=O)Nc2ccccc2C)CC1	1.4	4.7	-7.8	-17.7	2.2	3795	12.1
COc1ccc(OC)c(CCNC(=O)CS(=O)(=O)Cc2nc(-c3ccccc3Cl)oc2C)c1	9.4	10.8	-115.1	-0.7	3.4	5549	1.1
CC(=O)Nc1ccc(NC(=O)c2ccccc2C)cc1	11.4	-4.4	-7.5	2.7	1.5	6943	5.9
Cc1ccc(OCC(=O)NC(C)c2ccccc2)c([N+](=O)[O-])n1 (configuration not stated)	3.8	1.5	-20.7	-5.6	-1.6	4330	-11.2
CC(C)(C)C1CCC(C(=O)OCC(=O)N2CCOCC2)CC1 (configuration not stated)	10.9	4.2	-16.5	-19.8	6.4	2271	5.7
O=C(NCC1CCCO1)C1CCN(C2CCN(Cc3cccs3)CC2)CC1 (configuration not stated)	-12.8	-6.3	-23.3	-7.5	-2.7	4372	-10.0
Cc1ccc(C)c(NC(=O)c2cc(-c3cc(C)c(C)cc3O)n[nH]2)c1	0.3	-2.5	-18.5	-3.2	-14.9	2744	-5.9
NC(=O)NO	8.3	4.0	-14.1	·	9.5	5867	3.4
CN(c1ccc(C(=O)N2CCOCC2)cc1)S(C)(=O)=O	6.5	2.7	-27.1	-1.5	4.5	7523	9.1
CC1(C)S/C(=N/N=C/c2cccs2)NC1=O	·	·	-16.7	9.8	·	2701	·
O=C(CN1CCCC1)Nc1sc2c(c1C(=O)Nc1ccccc1)CCCC2	8.7	-4.4	-12.5	-2.3	3.4	6204	9.2
COc1cccc(N2C(=O)CC(N3CCN(CCN=CC4=C(O)CC(C)(C)CC4=O)CC3)C2=O)c1 (configuration not stated)	1.5	0.8	-20.5	7.9	6.6	4942	9.6
O=S(=O)(NCCc1ccccc1)c1ccc(Cl)nc1	-5.2	-5.6	-15.5	-12.2	6.1	2607	7.8
COc1ccc(Nc2nc3cc(C)ccc3cc2C#N)cc1	-2.9	0.5	-22.9	6.1	8.0	4365	-10.2
O=C(c1cc2ccccc2cc1O)N1CCN(c2cccc(Cl)c2)CC1	2.1	-9.3	-21.3	4.8	-5.8	6505	-7.3
O=C(COC(=O)c1ccccc1NC(=O)c1ccco1)Nc1ncc(Cl)cc1Cl	·	·	0.0	2.0	1.4	2724	-5.3
Cc1ccccc1OCC(=O)Nc1cccc(S(=O)(=O)NC2=NCCC2)c1	13.4	6.7	·	·	3.4	·	2.6

In the list so far, these contain bromine:
structure	Mtb hypoxia inh	Mtb hypoxia inh growth	PrP UTR inh	BJeLR viability	Sa RN4220 lethal	Autofluor counter	ugtP null kill
CCCc1nnc(NC(=O)Cn2c(=O)oc3cc(Br)ccc32)s1	-9.6	-0.4	-4.3	·	-3.0	21386*	-4.5
COc1ccc(NS(=O)(=O)c2ccc(Br)cc2)cn1	7.5	6.6	-2.1	0.7	6.2	4852	6.4

The list goes on.
structure	Mtb hypoxia inh	Mtb hypoxia inh growth	PrP UTR inh	BJeLR viability	Sa RN4220 lethal	Autofluor counter	ugtP null kill
O=C(Nc1cccc(Cl)c1Cl)c1ccc(-c2ccccc2)cc1	-4.6	0.0	-57.1	6.1	-1.9	2624	-4.8
CS(=O)(=O)N(CC(=O)N1CCN(Cc2ccccc2)CC1)c1cccc([N+](=O)[O-])c1	11.9	15.9	-15.9	9.0	3.3	4673	3.2
C(=N\Nc1nncc2ccccc12)/c1ccccc1	·	·	16.8	9.1	·	4492	·
CCOc1cccc(N2C(=O)CC(=O)NC2=O)c1	·	·	-16.9	3.5	2.0	4775	7.1
COC(=O)c1ccc(/C=C(\C#N)c2ccccn2)cc1	16.6	14.2	-73.7	0.5	16.4	4396	13.1
O=C(O)C(=C1OC(=O)c2ccccc21)c1ccccc1	9.6	9.1	·	·	5.4	·	0.4
CCOc1ccccc1NC(=O)C(C)CC (configuration not stated)	8.7	3.6	-12.4	1.9	5.5	2772	5.0
Cc1nnc(SCC(=O)NNC(=O)CC#N)[nH]c1=O	14.8	3.5	-8.5	-5.7	4.9	2068	14.3
CCOc1ccc(OCC)c(NC(=O)c2ccc(CNc3c(N4CCOCC4)c(=O)c3=O)cc2)c1	·	·	-0.9	-0.6	-1.6	2621	-7.6
Cc1nn(Cc2ccc(F)cc2)c(C)c1NC(=O)c1cc(-c2ccco2)on1	-4.3	0.5	0.4	3.7	5.5	8217	4.6
C=CCNc1nc(Nc2ccc(-c3nc4ccccc4o3)cc2)nc(N2CCOCC2)n1	14.5	2.0	-0.6	4.3	2.3	9311	41.2
CCCNC(=O)c1onc(CSc2ccc(F)cc2)c1C(=O)NC(C)C	8.0	9.9	-19.0	-10.8	3.4	3982	-12.9
COc1ccc(/C=N/NC(=O)c2ccc(CN3C(=O)c4cccc5cccc3c45)cc2)cc1O	·	·	-30.8	2.6	·	4855	·
COc1ccc(C2C(C(=O)N3CCN(C)CC3)c3cc(OC)c(OC)cc3C(=O)N2C)cc1 (configuration not stated)	14.5	3.7	-11.5	13.4	6.1	4172	5.2
Cc1cc(C)nc(NC(=S)NC(=O)c2ccccc2F)n1	7.9	1.0	·	4.3	2.9	4149	14.3
O=C1c2cccc3c(N4CCCCC4)ccc(c23)C(=O)N1CCO	1.6	3.4	-35.0	-1.1	6.1	3264	0.2
